# MLL AF4-AF9 inh – inhibitors of human MLL-AF4/AF9 interaction. AlphaScreen, biotin-AF4 peptide binding to FLAG-AF9. 0.47% of 350,000 active. AID 651704. inhibition, % at 10 µM;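 active = every replicate reaching a set inhibition limit, whatever the replicate mean, cut at about 25% in these data; inconclusive = mean inhibition reaches that limit but some replicates miss it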;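 also: 0% = plate neutral control median and 100% = total signal loss; the record names both 10 and 1 µM as test concentration; the first replicate is given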
# Target sequence (P42568 whole entry, looked up): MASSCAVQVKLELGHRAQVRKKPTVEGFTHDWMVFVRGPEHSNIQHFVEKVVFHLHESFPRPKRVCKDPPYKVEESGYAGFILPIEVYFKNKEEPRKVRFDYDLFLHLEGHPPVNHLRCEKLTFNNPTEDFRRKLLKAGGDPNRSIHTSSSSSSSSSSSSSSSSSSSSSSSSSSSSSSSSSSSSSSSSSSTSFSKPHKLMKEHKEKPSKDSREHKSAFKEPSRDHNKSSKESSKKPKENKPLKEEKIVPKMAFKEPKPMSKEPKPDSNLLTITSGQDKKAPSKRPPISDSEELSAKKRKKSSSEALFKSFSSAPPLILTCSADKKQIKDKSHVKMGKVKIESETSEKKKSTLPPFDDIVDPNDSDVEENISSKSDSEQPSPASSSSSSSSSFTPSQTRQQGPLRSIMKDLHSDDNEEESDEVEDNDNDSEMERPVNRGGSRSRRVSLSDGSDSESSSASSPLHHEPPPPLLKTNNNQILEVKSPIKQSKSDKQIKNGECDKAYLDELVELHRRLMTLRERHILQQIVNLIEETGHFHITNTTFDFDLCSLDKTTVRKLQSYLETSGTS
# Beta cell apopt – beta cell apoptosis inhibition | INS-1E cytokine-induced death, ATP luminescence, 48 h; percent of positive-control rescue, neutral wells zero | protection from apoptosis, % (concentration not given with the values) | 0.8% of 300,000 active | AID 435005;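 active = all replicates at 75% or more, or half of them and the mean; inconclusive = half reach 75% but not the mean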;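 also: 0% = cytokine-treated negative control wells and 100% = positive control rescue; higher means more ATP so stronger rescue from cytokine killing; wells of about 40 µL received 100 nL stock; the first replicate is given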
# Calb FLC – C. albicans growth modulation with fluconazole; AID 1979; C. albicans CaCi-2 (fluconazole-resistant clinical isolate) + fluconazole, Alamar Blue growth, 48 h; 0.57% of 300,000 active; growth inhibition, % (concentration not given with the values);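 active = most replicates above 75%; inconclusive = exactly half above 75%; inactive = most below 75%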;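 also: all wells also contain fluconazole at 8 µg/ml as a sub-toxic cotreatment; 0% = median of DMSO wells and 100% = median of geldanamycin control wells; wells of about 8 µL received 7.5 nL stock; the first replicate is given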
# Ecoli rRNA inh – inhibits bacterial ribosomal RNA function over humanized ribosomes; 1.6% of 350,000 active; E. coli WT GFP vs humanized-ribosome RFP mutants, fluorescence, 24 h; stronger effect = lower value; DMSO median 0, no signal -100; GFP signal change (wild-type ribosome), % (concentration not given with the values); AID 720706;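 active = significant combined selectivity score with lowered wild-type GFP, culture density cut under 30%, mutant RFP and density less affected; inactive = any of these conditions unmet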; also: one replicate is shown; some compounds called inactive have numbers as strong as hits
# RanGTP-Impb inh – inhibitors of RanGTP-importin-beta interaction, primary screen, biochemical, FRET, CFP-Ran, YFP-importin-beta, homogeneous. cell-free CFP-Ran/YFP-importin-beta FRET ratio. AID 2216. inhibition, % (no concentration beside the values). 1.1% of 300,000 active;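 active = most replicates above 15%; inconclusive = exactly half above 15%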;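 also: 0% = DMSO wells and 100% = Ran loaded with GDP instead of GTP; wells of about 40 µL received 100 nL stock; the first replicate is given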
# A1 inh – inhibitors of the anti-apoptotic protein A1, read as caspase activation; caspase activation, % (test concentration not listed); 0.066% of 330,000 active; AID 2462; MEF A1-2A-BIM cells, Caspase-Glo 3/7 luminescence, 3 h; percent of clofoctol response, vehicle zero;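 active = over half of replicate activation scores above 10%, or exactly half above 10 with the replicate mean above 10; inconclusive = replicate mean below 10 yet half the replicates above 10; inactive = over half of replicates below 10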;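 also: wells of about 30 µL received 50 nL stock; many hits fall short of the cut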
# T cruzi repl – T. cruzi replication inhibition | T. cruzi beta-gal in NIH3T3, luminescence, 90 h | inhibition, % (no concentration beside the values) | 1.4% of 300,000 active | AID 1885;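 active = mean inhibition across valid replicates above about 55%, limit read from the data; inconclusive = mean below that limit but half or more replicates reach it; inactive = mean below it, under half of replicates reach it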;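 also: signal also drops with host cell toxicity which is not excluded here; 0% = plate median of DMSO wells and 100% = zero luminescence signal; higher percent means less beta-gal luminescence so fewer parasites; stock transfer was 50 nL into about 50 µL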
# Vif A3G – inhibitors of Vif binding to APOBEC3G peptide, primary screen, biochemical, TR-FRET, GST-Vif 1-94, biotin-A3G peptide, dose response retest (AID 1117319) | TR-FRET GST-Vif / biotin-A3G peptide binding; higher % means a stronger effect; test concentration not given here; strong numbers were not always called active | inhibition, %, or IC50 in µM where a hit was titrated | 0.57% of 260,000 active;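 active = above the screen mean plus three standard deviations and confirmed in dose response; inconclusive = results disagree or hit not tested in dose response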;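 also: Vif residues 1-94 fused to GST binding biotinylated APOBEC3G peptide 110-148; 0% = full assay without inhibitor and 100% = GST in place of GST-Vif; retest series ran down from 100 µM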
# Ecoli rRNA inh OD600 – also measured in Ecoli rRNA inh; calls as there; OD600 change, %; measured here: OD600 growth;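 optical density of the mix in the first replicate; 0 = DMSO median and -100 = no signal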
# Ecoli rRNA inh RFP – also measured in Ecoli rRNA inh; calls as there; RFP signal change, %; measured here: RFP humanized mutant strains;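 first replicate; 0 = DMSO median and -100 = no signal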
# An asterisk follows results filed as active; ? = inconclusive; . = not tested or not shown; & = joins results of further samples. An excerpt, so the mix of outcomes need not match the whole.
SMILES,MLL AF4-AF9 inh,Beta cell apopt,Calb FLC,Ecoli rRNA inh,Ecoli rRNA inh OD600,Ecoli rRNA inh RFP,RanGTP-Impb inh,A1 inh,T cruzi repl,Vif A3G
Cc1ccn(CC(=O)NC2CC(C)(C)Cc3c2cnn3-c2ccc(F)cc2)n1 (stereo unspecified),-1.5,-7,-3,-1,6,-0.8,-0.5,-0.1,2,-8%
CSc1ccc(NC(=O)c2cccnc2)cc1C#N,-6.1,9,-14,9,9,1.7,1.7,0.2,5,.
CCCCc1ccc(S(=O)(=O)N/N=C(/C)c2ccncc2)cc1,-1.8,31,0,5,7,-2.1,9.5,0.8,4,2%
C#Cc1ccc([C@H]2C=C(C(=O)N3CCN(Cc4ccc5c(c4)OCO5)CC3)O[C@@H](OCC)[C@@H]2CCCO)cc1,5.0&2.4,-1,7,-14,-35,-2.7,1.2,0.3,53,-6%
COc1ccc(-n2nc3c(c2NC(=O)CCCl)CSC3)cc1,-0.3,1,6,7,11,1.5,5.2,0.6,-17,-9%
O=C(/C=C/c1cccc(F)c1)OCC(=O)c1ccc[nH]1,-2.6,-4,.,-6,0,0.3,.,-1.8,.,.
CCc1ccc(Nc2nnc(SCC(=O)Nc3sccc3C(N)=O)s2)cc1,.,-1,1,.,.,.,-0.3,-0.6,6,1%
Cc1nnc(NC(=O)CSc2nnc(C)n2Cc2ccccc2)s1,.,-4,1,.,.,.,0.7,0.0,-1,.
c1ccc2c(N3CCOCC3)nc(-c3ccncc3)nc2c1,.,-3,3,.,.,.,-1.4,-0.5,14,26%
C/C(=N/NS(=O)(=O)c1ccc(C)c(C)c1)c1c[nH]c2ccccc12,-0.6,-1,18,-5,-2,-0.3,-0.7,1.2,5,.
CCCOc1nc2c(c(=O)n(C)c(=O)n2C)n1C,0.4,-3,4,1,13,-0.9,0.6,0.6,5,-10%
Cc1ccc(-c2c[n+](Cc3ccc(Cl)cc3)c3n2CCC3)cc1,-0.8,109*,20,.,.,.,2.2,-0.3,61*,?
CC(=O)Oc1cc(C(=O)OCC(=O)N2CCc3ccccc3C2)cc(OC(C)=O)c1OC(C)=O,-2.5,-16,.,-4,-19,-3.3,.,0.4,.,13%
CCOC(=O)CNC(=S)N(Cc1ccco1)Cc1ccccc1Cl,1.7,-15,-5,0,-29,-6.5,-2.3,0.0,-3,-1%
C#CCN1C(=O)S/C(=C\c2ccc(N3CCOCC3)cc2C)C1=O,.,-1,-4,.,.,.,-3.2,-0.5,20,.
CCCCn1c(N)c(NCCC)c(=O)[nH]c1=O,.,.,3,.,.,.,5.9,0.1,-10,-7%
COC(=O)C1=C(C)N(c2ccc(OC)cc2)C(C)=C(C(=O)OC)C1c1ccc(OC)cc1,1.1,-7,5,7,5,-0.6,-0.9,0.6,45,-7%
Cc1cc(/C=N/n2cnnc2)c(C)n1-c1ccc(OCc2ccccc2F)cc1,17,122*,-7,-43*,-33*,-10*,1.8,0.0,38,1%
Cc1ccc(Cl)cc1NC(=O)C1CCCCC1C(=O)O (stereo unspecified),-1.7,-5,-5,16,19,-2.4,0.4,0.5,6,-1%
Cc1onc(-c2ccccc2)c1C(=O)Nc1ccccc1C#N,-5.8&-4.1,1,-5,1&-2,4&1,-5.6&0.3,2.1,0.2,-12,15%
CC(C)CNC(=O)C(=O)NCCC1CCCCN1S(=O)(=O)c1cccs1 (stereo unspecified),0.2,-7,-4,3,5,-0.9,2.4,0.2,16,-2%
O=C(c1cccnc1)N1CCN(c2ccccc2Cl)CC1,.,-2,3,.,.,.,1.0,-0.3,-1,.
CCN(CC)S(=O)(=O)c1ccc2oc(C(=O)NCCCN3CCOCC3)c(C)c2c1,.,.,-21,.,.,.,17*,1.0,3,12%
CCOC(=O)N1CCC(NC(=O)c2cc(C(=O)Nc3cccc(C(F)(F)F)c3)ccc2CO)CC1,-2.0,11,2,10,6,0.5,-1.0,0.5,-23,5%
Cc1ccc(CN2CCN(CC(=O)NC(C)c3ccc4c(c3)OCCO4)C2=O)cc1 (stereo unspecified),-3.1,.,-4,-6,-15,-4.4,2.2,0.7,11,-4%

# Three entries from above, bar-delimited.
SMILES | MLL AF4-AF9 inh | Beta cell apopt | Calb FLC | Ecoli rRNA inh | Ecoli rRNA inh OD600 | Ecoli rRNA inh RFP | RanGTP-Impb inh | A1 inh | T cruzi repl | Vif A3G
CCCOc1nc2c(c(=O)n(C)c(=O)n2C)n1C | 0.4 | -3 | 4 | 1 | 13 | -0.9 | 0.6 | 0.6 | 5 | -10%
C/C(=N/NS(=O)(=O)c1ccc(C)c(C)c1)c1c[nH]c2ccccc12 | -0.6 | -1 | 18 | -5 | -2 | -0.3 | -0.7 | 1.2 | 5 | .
c1ccc2c(N3CCOCC3)nc(-c3ccncc3)nc2c1 | . | -3 | 3 | . | . | . | -1.4 | -0.5 | 14 | 26%

# (list continues)
SMILES,MLL AF4-AF9 inh,Beta cell apopt,Calb FLC,Ecoli rRNA inh,Ecoli rRNA inh OD600,Ecoli rRNA inh RFP,RanGTP-Impb inh,A1 inh,T cruzi repl,Vif A3G
COc1ccc(/C=C(\NC(=O)c2ccccc2)C(=O)NCCC(=O)O)cc1,-1.6,1,-20,11,11,-3.0,.,-0.2,.,9%
Cc1ccc2c(C)nc(Nc3nc(CSc4nnnn4-c4ccccc4)cc(=O)[nH]3)nc2c1,.,-7,3,.,.,.,-1.5,0.2,31,0%
Cc1nn(C)cc1CNC(=O)c1cnn2c1NC(c1ccc(Br)cc1)CC2C(F)(F)F (stereo unspecified),.,43,16,.,.,.,2.7,-0.7,14,11%
N#CC(C(=O)Nc1ccc(Cl)c(Cl)c1)=C1Nc2ccccc2N1,.,14,1,.,.,.,2.0,1.3,16,9%
CC(C)[C@H](NC(=O)c1ccco1)C(=O)NCc1ccccc1,-1.9,-3,-4,-5,3,-3.0,6.3,-0.4,1,.
Cc1cccc(NC(=O)COC(=O)c2ccccn2)c1,-3.4,-2,-15,4,8,-3.5,0.4,0.9,-5,.
O=C(CSc1nc2ccccc2c(=O)n1Cc1ccco1)Nc1cccc(O)c1,-3.1,-2,-6,-9,-29,1.0,-3.7,-0.3,6,.
CCCCCOCC1CC(C/C(C)=N/NC(N)=S)C(=O)O1 (stereo unspecified),-0.7,-2,-9,15,14,-0.2,6.6,0.9,0,.
CCCCNC(=O)CC1N=C2c3ccccc3N=C(SCC(=O)Nc3cccc(C)c3)N2C1=O (stereo unspecified),.,0,7,.,.,.,2.6,-0.6,0,5%
CCn1c(CC(=O)Nc2ccc(F)cc2)nnc1SCC(=O)NC1CCCC1,-1.8,-7,-3,8,13,1.7,2.3,0.6,-6,.
Cc1ccc2c(c1)C(c1ccccc1)N(C(=O)c1ccc(S(=O)(=O)N3CCOCC3)cc1)CC(=O)N2 (stereo unspecified),.,0,-2,.,.,.,0.0,-0.8,4,24%
CCOC(=O)C1(Cc2ccccc2)CCN(Cc2cccc(OC)c2O)CC1,5.0,2,-17,-8,-14,0.9,-5.6,-0.3,11,-3%
O=C(Nc1ccc(F)cc1)C(=O)c1c(O)[nH]c2ccc([N+](=O)[O-])cc12,.,0,2,.,.,.,-0.2,-6.5,-31,?
CCC(CO)Oc1cc(NC(=O)c2ccccc2[N+](=O)[O-])c2ncn(C(C)C)c2c1 (stereo unspecified),-2.4,-2,.,-16,10,12,.,0.2,.,.
CC1CN(C(=O)/C(=C/c2ccco2)NC(=O)c2ccccc2)CC(C)O1 (stereo unspecified),-3.9,-2,19,18,5,2.7,-3.7,-0.5,-2,.
C[C@H](CO)N1C[C@H](C)[C@@H](CN(C)Cc2ccc(C(=O)O)cc2)Oc2c(NS(=O)(=O)c3cccs3)cccc2C1=O,-3.8&2.5,-2,.,2&14,9&16,-0.3&-3.3,.,0.3,.,11%
COc1ccc(CS(=O)(=O)c2ncn[nH]2)cc1,0.4,-3,-5,8,17,1.3,-4.3,-1.2,-9,.
O=[N+]([O-])c1ccccc1OCCOCCOc1cccc2cccnc12,2.8,2,5,-13,-4,4.6,-2.8,0.7,0,4%
CNc1nnc(-c2cc3cc(Cl)ccc3oc2=O)s1,.,4,27,.,.,.,-56,-1.1,-1,-1%
Cc1ccc(OCCn2c(NC(=O)c3ccco3)nc3ccccc32)cc1,.,33,.,.,.,.,0.5,0.5,43,19%
Cc1cc(C(=O)OCC(=O)NC2CC2)c2ccccc2n1,1.8,-2,.,5,8,-0.4,.,0.3,.,-3%
COC(=O)c1ccc(C(C(=O)NC2CCCCC2)N(C(=O)Cc2cccs2)C2CC2)cc1 (stereo unspecified),.,.,-9,.,.,.,?,0.2,-17,6%
COc1cc(CN2CCN(c3ccccc3F)CC2)c([N+](=O)[O-])cc1OC,8.1,-4,39,-3,-9,-4.9,4.7,-0.2,6,.
CCOC(=O)/C(C#N)=N/Nc1ccc(S(=O)(=O)Nc2cc(OC)nc(OC)n2)cc1,2.8,-2,-25,-4,-4,0.5,0.5,-0.2,6,.
CCCCN(CC)CCNC(=O)c1cc2c(=O)n(CC)c3ccccc3c2s1,1.9,5,4,-11,-15,1.4,-3.4,1.1,37,-7%
CCCNC(=O)c1cc(S(=O)(=O)N2CCCCC2)ccc1N1CCOCC1,-4.2,-3,-5,4,11,-4.0,0.4,0.2,2,.
Cc1ccc(C)c(NC(=O)CN(C)C(=O)c2cc(S(=O)(=O)N3CCOCC3)ccc2N2CCCC2)c1,2.2,-5,-5,-2,-5,-1.7,-2.8,0.8,1,.
CCc1ccc2c(c1)C(=O)C[C@]1(CCC[C@H](C)C1)O2,-2.7,4,-7,5,-4,-1.8,?,-0.3,-13,.
CCOc1ccc2nc(N3CCC(C(=O)N4CCN(c5ccccn5)CC4)CC3)sc2c1,.,5,-1,.,.,.,4.3,-0.7,34,-1%

# Complete entries as entered above. Order of values: MLL AF4-AF9 inh	Beta cell apopt	Calb FLC	Ecoli rRNA inh	Ecoli rRNA inh OD600	Ecoli rRNA inh RFP	RanGTP-Impb inh	A1 inh	T cruzi repl	Vif A3G
# CCOC(=O)/C(C#N)=N/Nc1ccc(S(=O)(=O)Nc2cc(OC)nc(OC)n2)cc1 as listed: 2.8	-2	-25	-4	-4	0.5	0.5	-0.2	6	.
# Cc1ccc2c(c1)C(c1ccccc1)N(C(=O)c1ccc(S(=O)(=O)N3CCOCC3)cc1)CC(=O)N2 (stereo unspecified) as listed: .	0	-2	.	.	.	0.0	-0.8	4	24%
# COc1ccc(CS(=O)(=O)c2ncn[nH]2)cc1 as listed: 0.4	-3	-5	8	17	1.3	-4.3	-1.2	-9	.
# CC1CN(C(=O)/C(=C/c2ccco2)NC(=O)c2ccccc2)CC(C)O1 (stereo unspecified) as listed: -3.9	-2	19	18	5	2.7	-3.7	-0.5	-2	.
